Lassa entry inh = Lassa virus entry inhibition | hit rate 1.2% among 300,000 | Lassa virus pseudotype entry inhibition, cell reporter; control for the full effect not named in the record | Potency, µM (series often up to 37.9 µM), for inactives: top-dose activity change, negative = inhibition, usual class: inhibitors; active means well fitted inhibition curve with a large enough effect; inconclusive means small, poorly fitted or top-dose-only effect, or effect the other way; inactive means flat fitted curve, though single readings scatter; tested in HEK293 cells; further: on the % scale 0 is the no-effect control and ±100 the full control effect; nearly all actives have a fitted effect of over 50% in size; luciferase read-out
RE007 growth inh = less growth of the S. pombe RE007 Vpr strain | S. pombe RE007 Vpr strain, BacTiter-Glo ATP luminescence, 24 h; control for the full effect not named in the record | Potency, µM (series often up to 92.2 µM), without a hit: at the top dose activity change, negative = less growth | hit rate 0.21% among 360,000 | AID 651644; active = well fitted falling curve with a large enough effect; inconclusive = small, poorly fitted or top-dose-only effect; inactive = no such curve, though single readings can be large or run the other way;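 further: on the % scale 0 is the no-effect control and ±100 the full control effect; nearly all actives have a fitted effect of over 50% in size; the assay follows cell death caused by Vpr and the record does not say whether a fall means rescue or toxicity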
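Fission yeast RE007 carrying one integrated HIV-1 vpr copy, seeded at OD 0.01 in PMG+AL medium with 23 nL pinned compound. Grown 24 h at 30 degrees; viability read by BacTiter-Glo luminescence after 5 min.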
2A StopGo = lowers the luciferase signal of an FMDV 2A StopGo reporter; human cells with a luciferase reporter of 2A StopGo recoding; control for the full effect not named in the record; Potency, µM (doses to about 57.9 µM), for inactives: at the top dose signal change, negative = less light; hit rate 1.2% among 410,000; AID 1159524; active = well fitted falling curve with a large enough effect; inconclusive = small, poorly fitted or top-dose-only effect; inactive = no such curve, though single readings can be large or run the other way; tested in HEK293T cells; further: on the % scale 0 is the no-effect control and ±100 the full control effect; nearly all actives have a fitted effect of over 45% in size; luciferase light after 4 h
NS1 function inh = influenza NS1 inhibition. S. cerevisiae slowed by influenza A NS1, growth recovery by OD600. Potency, µM (doses to about 46.1 µM), inactives show top-dose activity, positive = more growth. hit rate 0.4% among 270,000. AID 2326; further: actives are rising curves; nearly all actives have a fitted effect of over 50% in size
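Recovery from NS1-induced slow growth read by OD600 in budding yeast switched to galactose assay medium (pH 6.0, -URA) at 1:100 dilution. Compound 23 nl per well; the matching strain lacking NS1 serves as control.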
Cruzain Triton = inhibitors of Trypanosoma cruzi cruzain with detergent; purified cruzain, Z-FR-AMC fluorescence, 0.01% Triton; hit rate 0.43% among 200,000; AID 1478; Potency, µM, without a hit: max response, negative = inhibition, usual class: inhibitors; active means well fitted curve in the direction sought with a large enough effect; inconclusive means small, poorly fitted or top-dose-only effect, or another doubt; inactive means no such curve, though single readings can be large; an effect the other way counts as inactive or inconclusive;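 further: plate controls were neutral wells for no effect and buffer without enzyme for full effect; nearly all actives have a fitted effect of over 40% in size; top concentration of the series not given in the record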
Target sequence (P25779 123-467 limits assumed): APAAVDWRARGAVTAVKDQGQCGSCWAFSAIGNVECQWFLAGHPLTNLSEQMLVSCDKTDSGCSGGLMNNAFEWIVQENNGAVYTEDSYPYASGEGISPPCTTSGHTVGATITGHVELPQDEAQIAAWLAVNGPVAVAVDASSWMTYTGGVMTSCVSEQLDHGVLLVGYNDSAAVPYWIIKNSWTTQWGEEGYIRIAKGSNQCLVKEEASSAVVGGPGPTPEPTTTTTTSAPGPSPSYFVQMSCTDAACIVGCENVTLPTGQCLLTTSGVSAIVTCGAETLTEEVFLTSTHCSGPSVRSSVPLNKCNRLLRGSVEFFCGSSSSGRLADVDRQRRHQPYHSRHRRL
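In this qHTS format, compounds are incubated with 1.5 nM cruzain for 15 min at room temperature before 2 uM Z-FR-AMC is added. Release of AMC is followed at 360/450 nm, and progress is taken as the 60 s fluorescence difference.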
MARV entry inh = inhibitors of Marburg virus binding or cell entry; Marburg virus pseudotyped entry inhibition, cell reporter; control for the full effect not named in the record; about a third of the inactives were read at about 46 µM; Potency, µM (top dose mostly 37.8 µM), inactives show at the highest dose activity change, negative = inhibition, most hits filed as inhibitors; hit rate 1.8% among 300,000; AID 540276; active = well fitted inhibition curve with a large enough effect; inconclusive = small, poorly fitted or top-dose-only effect, or effect the other way; inactive = flat fitted curve, though single readings scatter; tested in HEK293 cells; about a fifth of its hits are not listed in these tables; further: on the % scale 0 is the no-effect control and ±100 the full control effect; luciferase read-out
SARS PLpro yeast = SARS-CoV PLP inhibition in yeast; S. cerevisiae expressing SARS-CoV PLpro, growth rescue; control for the full effect not named in the record; Potency, µM (highest dose often 32.9 µM), inactives show top-dose activity, positive = growth rescue; hit rate 0.19% among 330,000; further: 0% is about no effect; nearly all actives have a fitted effect of over 55% in size; growth read by luminescence after 48 h
Cruzain inh noDet = cruzain (T. cruzi) inhibition without detergent; P25779; purified cruzain, Z-FR-AMC fluorescence, no detergent; Potency, µM, for the others: max response, negative = inhibition, actives largely listed as inhibitors; hit rate 2.3% among 200,000; active means well fitted curve in the direction sought with a large enough effect; inconclusive means small, poorly fitted or top-dose-only effect, or another doubt; inactive means no such curve, though single readings can be large; an effect the other way counts as inactive or inconclusive;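 further: plate controls were enzyme without inhibitor for no effect and buffer without enzyme for full effect; nearly all actives have a fitted effect of over 40% in size; top concentration of the series not given in the record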
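Detergent-free condition (0.00005% Triton X-100) in acetate buffer pH 5.5 with DTT. 1.5 nM enzyme and compound were pre-mixed 15 min, then 2 uM Z-FR-AMC substrate added; reaction progress from fluorescence change between first and third reads (60 s).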
* = called active by the depositor; ? = inconclusive; · = not tested or not shown; & = joins results of further samples; [ ] = dose if it differs, or a comment. Unless noted, the call rests on the fitted dose curve; in most records, active means well fitted rising curve with a large enough effect; inconclusive means small, poorly fitted or top-dose-only effect; inactive means no such curve, though single readings can be large or run the other way. Potency means the concentration at half of the fitted maximal effect.

SMILES | Lassa entry inh | RE007 growth inh | 2A StopGo | NS1 function inh | Cruzain Triton | MARV entry inh | SARS PLpro yeast | Cruzain inh noDet
Cc1ccc(S(=O)(=O)N/N=C\c2cn(CC(N)=O)c3ccccc23)cc1 | 13% | 2% | 66%[activator] | -9% | · | 1% | 2% | ·
O=C(COC(=O)C12CC3CC(CC(O)(C3)C1)C2)N1CCN(S(=O)(=O)c2ccc(Cl)cc2)CC1 | 19% | -6% | ? | -10% | -2.7% | 13%&13% | 8% | ?
CCn1c(COc2cccc(C)c2)nnc1SCC(=O)NC1CCCC1 | ? | 2% | -11% | -2% | · | -5%[46.1 µM] | 2% | ·
COc1ccc(CN2CCN(c3ccccc3OC)CC2)cc1OC | · | 0% | 17% | 12% | · | · | 3% | ·
O=C(N/N=C/c1cccc(O)c1)c1ccc(COc2ccc3c(c2)CCC3)o1 | 6% | 9% | ? | -5% | -4.3% | ? | 5% | 8%
CSc1ncccc1C(=O)Nc1ncc(C)s1 | -2%[46.1 µM] | -17% | 6% | -2% | · | 2%[46.1 µM] | -1% | ·
O=S(=O)(c1ccc(Cl)c(NC(=S)Nc2ccccc2N2CCOCC2)c1)N1CCOCC1 | -3% | 21% | -23% | 8% | -3.9% | -3% | -14% | 0%
N#Cc1cc2c(=O)n3ccccc3nc2n(CCCN2CCOCC2)c1=O | -17% | -14% | -18% | 11% | 28µM* | 11% | -7% | ?
CC1=NN=C(c2ccccc2)C(c2c[nH]c3ccccc23)N1O (configuration not stated) | 3% | 5% | -17% | 6% | -4.3% | 14% | -4% | -4%
CCOc1cc(C(=O)Nc2cnccn2)cc(OCC)c1OCC | -20% | -10% | -20% | -7% | 1.6% | ? | ? | 12%
CC(=O)c1ccc(NC(=O)CSc2ccc(-c3cccs3)nn2)cc1 | 1%[46.1 µM] | · | ? | · | -8.5% | · | · | 4%
CCOc1ccc(OC(=O)c2cn(-c3cccc(OC)c3)c(=O)c3ccccc23)cc1 | ? | · | 0% | · | -3.4% | · | · | -11%
COc1ccc(C[C@@H]2CN3C(=NC[C@@H]3C)N2C[C@H](C)NC(=O)c2ccc(C)c(Br)c2)cc1 | · | -9% | -6% | 1% | · | · | -1% | ·
Cc1nnc(N2CCC(C(=O)NC(C)C)CC2)c2nn(-c3ccccc3)c(C)c12 | 7%[46.1 µM] | · | -12% | · | -0.1% | · | · | -3%
COC(=O)C1CCN(C(=O)CN2C(=O)NC(CCc3ccccc3)C2=O)CC1 (configuration not stated) | 14% | -12% | -8% | -2% | 2.7% | 17% | 1% | -4%
CC(C)NS(=O)(=O)c1ccc(CCC(=O)NCc2ccc3c(c2)OCO3)cc1 | 1% | -4% | · | 4% | -0.7% | 14% | -25% | 11%
Cc1c(C(=O)N2CC[C@@H](N3CCC(O)CC3)[C@H](O)C2)[nH]c2ccc(Cl)cc12 | -17%[46.1 µM] | 1% | -8% | -3% | · | -23%[46.1 µM] | -5% | ·
O=C(NCCNc1ccc([N+](=O)[O-])cc1C(F)(F)F)c1cccc(F)c1 | ? | -9% | 0% | -19% | -13% | -49% | 2% | -10%
CCCCCC1C(C(=O)OCC)C(=O)NC1(C(=O)OCC)C(=O)OCC (configuration not stated) | -17% | -2% | -15% | · | · | -32% | · | ·
Cc1nnc(SCC(=O)N2CC(=O)Nc3ccccc32)n1Cc1ccccc1 | -8% | -3% | 6% | -1% | 7.8% | ? | 4% | 3%
O=C(CN1CCN(S(=O)(=O)c2ccccc2)CC1)Nc1ccccc1C(=O)NC1CC1 | 1% | -12% | ? | · | · | -2% | 3% | ·
Cc1ccc(S(=O)(=O)NCc2ccc3c(c2)cc(C)n3C)cc1 | · | -2% | 21% | ? | -0.9% | · | -9% | -1%
COc1ccc(S(=O)(=O)N2CCOC2CNC(=O)C(=O)NCCc2ccc(OC)c(OC)c2)cc1 (configuration not stated) | ? | 18% | ? | -6% | -3.1% | ? | -7% | 13%
COc1ccccc1CNS(=O)(=O)c1ccc2[nH]c3c(c2c1)CCCCC3 | ? | · | 3% | · | -12% | · | · | ?
Cc1ccc(C(C)NC(=O)c2ccncc2)c(C)c1 (configuration not stated) | -23%[46.1 µM] | -3% | -25% | 5% | · | ? | -14% | ·
O=c1oc2ccccc2cc1C1=Nn2c(nnc2-c2cccnc2)SC1 | 1% | 6% | -15% | 14% | -6.9% | 9%[46.1 µM] | -3% | 1%
Cc1c(Cc2ccccc2)sc(NC(=O)C(C)(C)C)c1C(N)=O | · | 28% | -28% | -67% | · | · | -6% | ·
COc1ccc(NC(=O)c2oc3ccccc3c2NC(=O)c2ccco2)cc1 | -20% | -12% | -3% | -38% | 1.0% | ? | -1% | -16%
Cc1cc(NC(=O)COC(=O)C2CC(=O)N(c3ccc(C)c(Cl)c3)C2)no1 (configuration not stated) | -5% | -1% | 12% | -3% | · | 19%[46.1 µM] | -14% | ·
O=C(NCCO)/C(=C\c1ccco1)NC(=O)c1cccs1 | 13% | -3% | -7% | · | · | -3%[46.1 µM] | -2% | ·
COc1ccc(Nc2nc(-c3cccc([N+](=O)[O-])c3)nc3ccccc23)c(OC)c1 | -27% | 5% | -28% | -5% | -5.0% | ? | 9% | -3%
O=C1NC(=O)C2(COC3(CCCC3)OC2)S1 | 1% | 14% | -9% | -1% | 2.4% | 23% | 1% | 9%
COc1cc(OC)cc(C(=O)N/N=C/c2ccc(OC)c(COc3ccc4ccccc4c3)c2)c1 | -18% | 2% | -11% | ? | -1.1% | 2% | 3% | 7.9µM*
Cn1c(=O)c2c(ncn2CC(=O)N/N=C/C=C\c2ccccc2[N+](=O)[O-])n(C)c1=O | ? | -3% | -3% | 10% | · | -3%[46.1 µM] | 1% | ·
CCCC(=O)Nc1ccc(N2CCCCC2)cc1 | 15% | 2% | 33%[activator] | -5% | -3.0% | ? | 7% | -10%
O=C(CSc1n[nH]c(=O)[nH]c1=O)N/N=C/c1ccccc1 | 0% | 5% | -5% | 5% | -0.8% | -1% | 16% | -13%
OCC[C@@H]1C[C@H](O)[C@@H](O)[C@]2(CCc3ccccc3O2)O1 | · | 4% | -11% | 0% | · | · | 4% | ·
CCn1c(SCC(=O)c2ccc(Cl)s2)nnc1-c1cccs1 | -7% | -7% | 36%[activator] | -23% | -9.7% | 18% | -5% | ?
COc1cc(C(=O)N2CCc3ccccc32)cc(OC)c1OC | -7% | -6% | -16% | -11% | · | ? | -5% | ·
COc1ccc(CN(C(=O)c2ccccc2OC)C2CCS(=O)(=O)C2)cc1 (configuration not stated) | -7% | -4% | -8% | 5% | -0.3% | 15% | 4% | -9%
O=C(Nc1cccn(Cc2c(Cl)cccc2Cl)c1=O)c1c(Cl)cccc1Cl | ? | 9% | ? | -14% | -3.4% | ? | -4% | ?
COc1ccc(N2CCCC2)c(NC(=O)COc2ccccc2)c1 | 20%[46.1 µM] | -24% | -17% | -7% | · | ? | -17% | ·
O=C(O)CN(Cc1ccccc1)S(=O)(=O)c1ccc2c(c1)OCCO2 | 1% | 3% | -14% | 4% | · | 5%[46.1 µM] | 1% | ·
O=C(CCC(=O)c1cccs1)NNC(=O)c1ccccc1O | 7% | 8% | 3% | · | · | 1% | 10% | ·
CN(NC(=O)COc1ccccc1)C1=NS(=O)(=O)c2ccccc21 | · | -1% | -10% | 2% | · | · | 1% | ·
COc1ccc(CCNC(=O)c2nn(C)c3c2CS(=O)(=O)c2ccccc2-3)c(OC)c1 | · | -14% | ? | -5% | · | · | -6% | ·
FC(F)Oc1ccc(/C=N/NC(=S)Nc2cc(C(F)(F)F)ccc2Cl)cc1 | ? | -8% | -9% | -1% | -3.5% | 2% | 23% | ?
Cc1cccc(-n2nc(C(=O)Nc3ccccc3)n3c(=O)cc(-c4ccccc4)nc23)c1 | -6% | 0% | -2% | 0% | -0.7% | 15% | -1% | 7.9µM*
O=C(NC1CC2CCCC(C1)N2S(=O)(=O)c1ccccc1)c1ccccc1 (configuration not stated) | -27% | 30% | ? | -16% | 4.0% | ? | 2% | 6%
COc1ccc(C(CNS(=O)(=O)c2ccc(C)cc2)N2CCN(C)CC2)cc1 (configuration not stated) | -16%[46.1 µM] | 0% | 1% | · | · | ? | -4% | ·
O=C(O)/C=C/c1cn(Cc2ccccc2)nc1-c1ccc(Cl)cc1 | -8% | -19% | -6% | 4% | · | -5% | -1% | ·
O=C(CSc1nnc(-c2ccncc2)o1)NCc1ccccc1 | -2% | 6% | -5% | 12% | 0.6% | 1% | -20% | 10%
O=C(Cc1c(C(=O)O)[nH]c2ccccc12)Nc1cccc(C(F)(F)F)c1 | ? | · | -12% | · | -20% | 27%[46.1 µM] | · | -7%
CCOC(=O)c1ccc2c(c1)nc(-c1ccc(F)cc1)c1nccn12 | 13%[46.1 µM] | -11% | 1% | 10% | -1.8% | 3% | -6% | 8%
N#Cc1c2c(c(-c3ccccc3)[nH]c1=O)CCCC2 | 11% | -29% | -26% | -3% | -2.4% | 6%&6% | 1% | -14%
Cc1ccc(C)c(Cn2cc(S(=O)(=O)c3ccc(Cl)cc3)c(=O)c3cc(F)ccc32)c1 | -9%[46.1 µM] | · | -12% | · | -0.6% | 13%[46.1 µM] | · | -7%
C/C(=N\NC(=O)CN1CCN(c2ccc(F)cc2)CC1)c1ccco1 | 2% | -2% | -17% | · | · | -24% | · | ·
O=C(/C=C/c1cccc([N+](=O)[O-])c1)c1ccco1 | · | -22% | -25% | -105% | · | · | -25% | ·
Cc1ccc(S(=O)(=O)NCc2ccccc2)cc1C(=O)N1CC(C)CC(C)C1 (configuration not stated) | 6% | 8% | 12% | · | · | -32% | 3% | ·

Bioassay records from PubChem.
